CapD inh – inhibitors of Bacillus anthracis CapD enzyme; actives 0.23% (n = 140,000); z-score (concentration not given with the values); purified CapD enzyme, fluorescence intensity read-out; hits give low values; some hits fall short of the stated cut;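 active means z-score under -4 in either of two replicates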;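 further: stock transfer was 100 nL into about 40 µL; score is relative to mean and spread of the plate; one replicate is shown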
AID504770 – E. coli YBA685 growth inhibition, screen for V. cholerae RctB inhibitors | E. coli YBA685 rctB-dependent plasmid, OD600 growth, 3 h; hits give low values | z-score (concentration not given with the values) | actives 0.27% (n = 130,000);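 active means z-score under -2 on both plates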;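 further: wells of about 30 µL received 100 nL stock; score is relative to mean and SD of the test wells; the first replicate is given; strong numbers were not always called active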
* marks the source's active call; other numbers are inactive results; nt = not tested or not shown. These rows are one share of the data, so the mix of outcomes need not match the whole.

SMILES	CapD inh	AID504770
O=C(CSc1nnnn1-c1ccccc1)N1N=CCC1c1ccccc1 (centres undefined)	0.45	-0.45
Cc1ccc(-n2c(CCC(=O)O)nc3ccccc3c2=O)cc1	nt	0.55
O=C(C1CC(=O)N(C2CCCCC2)C1)N1CCCc2ccccc21 (centres undefined)	0.26	-0.95
COc1ccc(S(=O)(=O)NC2CC2)cc1C(=O)N1CCOCC1	0.24	2.5
CNC(=O)CN1C(=O)c2cccc3cccc1c23	nt	-0.2
Cc1onc(-c2ccccc2)c1C(=O)N1CCC(O)(c2ccc(Cl)cc2)CC1	0.41	-0.4
Cc1ccc(NC2=NC(C)CS2)c(C)c1 (centres undefined)	nt	0.1
O=C(NCCOc1ccccc1Cc1ccccc1)c1ccc2c3c(cccc13)CC2	28	1
N#C/C(=C\c1cc(C(F)(F)F)cc(C(F)(F)F)c1)S(=O)(=O)c1ccccc1	-0.23	-0.7
COc1cc(OC)cc(C(=O)N2c3ccc(F)cc3CCC2C)c1 (centres undefined)	0.44	0.5
COc1ccc(CNC(=O)Cc2nn(C)c(=O)c3ccccc23)cc1	0.82	-2
C=CCSc1nnc(CNC(=O)c2ccc(F)cc2)n1-c1ccccc1	0.54	nt
COCCNC(=O)C1c2ccccc2C(=O)N(CCOC)C1c1ccc(F)cc1 (centres undefined)	0.64	-0.1
Oc1ccc(Cl)cc1C1=Nc2ccccc2N=C(c2ccc(Br)cc2)C1	-0.6	nt
CCCCn1c2ccccc2n2cc(C(C)(C)C)nc12	0.75	-0.25
CCN(C(=O)CSc1nc(N)nc(N)n1)C1=CCCC1	nt	0.3
C/C(=N\NC(=Nc1ccccc1)c1ccccn1)c1ccccn1	-2.7	1.3
COC(=O)c1ccc(NC(=O)c2cc(-c3cccc(OC)c3)nc3ccccc23)cc1	0.5	nt
Cc1cccc(N2CCCn3c2nc2c3c(=O)n(C)c(=O)n2C)c1	0.49	-2.5
COc1ccc(OC)c2[nH]c(=O)c(CCNC(=O)CC3CCCCC3)cc12	0.075	-0.5

Some of the entries so far, with each value named.
O=C(C1CC(=O)N(C2CCCCC2)C1)N1CCCc2ccccc21 (centres undefined)
  CapD inh = 0.26	AID504770 = -0.95
COc1ccc(S(=O)(=O)NC2CC2)cc1C(=O)N1CCOCC1
  CapD inh = 0.24	AID504770 = 2.5
CNC(=O)CN1C(=O)c2cccc3cccc1c23
  CapD inh = nt	AID504770 = -0.2
Cc1onc(-c2ccccc2)c1C(=O)N1CCC(O)(c2ccc(Cl)cc2)CC1
  CapD inh = 0.41	AID504770 = -0.4

Continued.
SMILES	CapD inh	AID504770
COc1ccc(C(CNC(=O)NC(C)(C)C)N2CCN(C)CC2)cc1 (centres undefined)	nt	1.2
Cc1ccc(S(=O)(=O)N2Cc3ccccc3CC2C(=O)N(C)C)cc1 (centres undefined)	nt	-0.3
NC(=O)NC12CC3CC(CC(C3)C1)C2	nt	-3.8
COc1cccc2c1OC[C@H]1CON(C)[C@@H]21	0.4	-0.9
OCCN1CCN(c2ncnc3c2c(-c2ccccc2)cn3-c2ccc(Br)cc2)CC1	0.29	nt
CN1CCC(N(C2CC2)S(=O)(=O)c2ccc(NC(=O)Nc3cccc(Cl)c3)cc2)CC1	-0.04	nt
O=C1C=CC(=NS(=O)(=O)c2ccc(F)cc2)C=C1	-0.48	-1.7
CC(C)(C)C(=O)Cn1c(NCCO)nc2ccccc21	0.78	0.6
COc1ccccc1N(CC(O)CN(Cc1ccccc1)Cc1ccccc1)S(=O)(=O)c1ccccc1 (centres undefined)	-0.43	nt
COCCN(C(=S)Nc1c(C)cccc1C)C(C)c1cccnc1 (centres undefined)	-3	2.2
COC(=O)C1C(=O)NC(SCC(=O)Nc2ccc(F)cc2)=C(C#N)C1c1ccccc1OC (centres undefined)	0.065	nt
COc1ccc(OC)c(C2C(C#N)=C(N)N(c3cc(-c4ccccc4)[nH]n3)C3=C2C(=O)CCC3)c1 (centres undefined)	nt	-0.25
CNC(=O)COC(=O)c1cc(F)c(F)cc1Cl	nt	-0.4
CCCS(=O)(=O)c1c(S(=O)(=O)CCC)c2cc(-c3ccncc3)ccn2c1C(=O)N/N=C/c1ccc(OC)cc1	-0.23	nt
O=C(O)CCCC(=O)Nc1cc(C(F)(F)F)cc(C(F)(F)F)c1	0.82	-0.3
CCC(CC)C(=O)Nc1cc(C)c2c(=O)oc3ccccc3c2n1	12	-0.1
CC1(C)CC(C)(c2cccc3ccccc23)c2cccc3cccc1c23 (centres undefined)	0.2	nt
CCc1ccc2oc(=O)cc(CN(CC)CCO)c2c1	nt	-0.6
COc1ccc(C2NC(=S)NC(C)=C2C(=O)Nc2ccccn2)cc1OC (centres undefined)	-0.18	-0.25
Cc1ccc(NC(=O)c2c(C)noc2-c2cc(C)on2)cc1	-0.5	-1.4
CSc1ccc(Cl)c(C(=O)OCC(=O)C(C)(C)C)c1	4.8	0.5
COc1ccc(C(CCN)c2ccccc2)cc1 (centres undefined)	0.29	-0.2
Fc1ccc2nc3c(nc2c1)c1cc(F)ccc1n3Cc1ccccn1	1.7	nt
Cc1ccc(C(=O)C2C(=O)N(c3ccccc3)C(=O)N(c3ccccc3)C2=O)cc1	-0.27	-0.25
C[N+]1(C2CCC3CCC2C3O)CCCCC1 (centres undefined)	-0.56	-0.7
COC(=O)c1ccccc1SC(=O)c1ccc(Cl)c(Cl)c1	-0.7	0
Cc1cc(N)n(-c2ncnc3scc(-c4ccc(C(C)C)cc4)c23)n1	nt	1.1
O=c1c2ccccc2nnn1CSc1ccc2c(c1)OCCO2	nt	0.95
Cc1ccc(-c2nnc(NCc3nc4ccccc4[nH]3)c3ccccc23)cc1S(=O)(=O)N(C)C	3.1	nt
O=C(Oc1ccc(-c2nccc(-c3cccs3)n2)cc1)c1cccs1	0.35	nt
CCc1ccc(-n2c(=S)sc3c(=O)[nH]c(SCC(=O)Nc4nccs4)nc32)cc1	0.14	nt
Cc1cccc(C=Nc2ccc(-c3nc4ccccc4o3)cc2)c1O	nt	-0.95
CCN(CC)c1ccc(CN2CC=C(c3ccc(F)cc3)CC2)cc1	-0.06	0.1
CCOC(=O)c1cnc2c(c(C)nn2C)c1Sc1cccc(Cl)c1	-0.11	-0.55
O=C(NC1CCCCC1)c1ccc(Cn2c(=S)[nH]c3ccccc3c2=O)cc1	-0.39	-1.4
CCCOc1ccc2c(c1)C(=NNC(N)=S)c1cc(OCCC)ccc1-2	-0.53	nt
Cc1ccc(-c2cn3nc(N4CCC(C(=O)NCCCN5CCCCC5)CC4)sc3n2)cc1	0.59	-0.65
NC(=O)C1CCCN(C(=O)Cc2n[nH]c(=O)c3ccccc23)C1 (centres undefined)	nt	-0.85
Cc1cc2c([nH]c(=O)c3c(=O)[nH]c(C(F)(F)F)nc32)s1	0.69	-0.6
COC(=O)c1cc(=O)n(Cc2ccccc2)c(=NCc2ccccc2)s1	0.23	-1.2
CC(C)(C)n1ncc(C(=O)O)c1C1CCNCC1	1.2	-0.65
CC1(C)OC(=O)C(=C2CCCN2)C(=O)O1	0.23	nt
CC(=O)C12c3ccccc3C(c3ccccc31)C1C(=O)N(c3cccc(Cl)c3)C(=O)C12 (centres undefined)	-0.16	nt
O=C(O)c1ccccc1Nc1ccccc1F	-1.4	0
COc1ccc(N2CCN(S(=O)(=O)c3cc(C(=O)Nc4ccc(Cl)c(Cl)c4)ccc3F)CC2)cc1	1.6	nt
Cc1[nH]c2ccc(Cl)cc2c(=O)c1CN1CCN(C)CC1	nt	-0.35
Cc1ccccc1N1CCN(C(=O)OCC#Cc2ccccc2)CC1	0.14	nt
O=C(Nc1ccc(Cl)cc1)C1CCC(=O)N1Cc1ccccc1Cl (centres undefined)	-0.67	nt
O=C(Cc1cccs1)NCCn1ccc2ccccc21	-0.34	0.55
COC(=O)c1c(C)[nH]c(C(=O)N2CCN(c3ccccc3)CC2)c1C	nt	0.1
CCOC(=O)C1=C(CC)Nc2ccccc2N=C1NC(=O)C1CC(=O)N(c2ccc3c(c2)OCCO3)C1 (centres undefined)	nt	1.4
CCc1cc2c(SCC(=O)c3ccc(Br)cc3)ncnc2s1	-0.27	0
O=C1c2cccc3cccc(c23)N1CN1CCN(c2ccccc2)CC1	nt	0
CCOC(=O)COc1cccc2c(=O)n(CC(=O)N3CCCCC3)ccc12	nt	0.25
Cc1cccc(N2CCN(C(=O)OCC#Cc3ccccc3)CC2)c1	-1.2	nt
Cc1cc(C)cc(NC(=O)CSCCn2c(C)csc2=O)c1	nt	0.35
CCOC(=O)CN1C(=O)COc2ccc(C)cc21	-0.46	0.75
CC(C)N(Cc1ccccc1)S(=O)(=O)c1ccc(C#N)cc1	nt	0.4
O=C1CC(c2cccc([N+](=O)[O-])c2)CC2=C1C(c1ccco1)N(C(=O)C(F)(F)F)c1ccccc1N2 (centres undefined)	-1	nt
Cc1c(O)c2ccccc2n(C)c1=O	39	0.7

(continued)
SMILES	CapD inh	AID504770
O=C(CC1CCCCC1)Nc1ccccn1	nt	-0.3
COc1ccccc1N1CCN(C(c2cccs2)C(C)NS(=O)(=O)c2ccc(F)cc2)CC1 (centres undefined)	0.58	-0.55
O=C(Nc1ccccc1Cl)C1CCN(Cc2cnn(-c3ccccc3)c2-n2cccc2)CC1	-0.34	-0.6
O=C(CSc1nc2ccc(NC(=O)c3ccccc3Cl)cc2s1)NCC1CCCO1 (centres undefined)	-0.17	nt
Cc1ccc(S(=O)(=O)N(CC(=O)NCc2ccncc2)C2CCCCC2)cc1	0.27	0.3
COc1ccc(Oc2c(C(F)(F)F)oc3cc(OCC(=O)OC(C)C)ccc3c2=O)cc1	-0.38	nt
CCOC(=O)c1cc(C#N)c(C)nc1N1CCN(C(=O)OCc2ccc(OCc3ccccc3)c(OC)c2)CC1	1	nt
O=C(NCC(c1cccnc1)N1CCN(c2ccccc2)CC1)OCc1ccccc1 (centres undefined)	1.1	1.9
Cc1ccc(S(=O)(=O)N2CCCN(S(=O)(=O)c3ccc(C)cc3C)CC2)c(C)c1	1.7	nt
N#Cc1c(-c2cccs2)oc(-n2cccc2)c1-c1cccs1	6.7	0.95
Cc1nc(=O)c(-c2ccccc2)c(C)n1-c1ccccc1	-0.24	0.15
C=CCC(CC=C)(C(=O)O)c1ccccc1	0.23	0.1
COc1ccc(NC(=O)c2cccn(OCc3ccc(F)cc3)c2=O)cc1	0.21	-0.4
CCOc1ccc2nc(SCC(=O)Nc3cccc(C(=O)O)c3)sc2c1	-0.81	nt
CN(CCc1ccccn1)c1nc(C(F)(F)F)nc2ccccc12	nt	0.1
CC(C)(C)C1CC(C(F)(F)F)n2nc(C(=O)O)cc2N1 (centres undefined)	0.26	-0.3
O=C(NN1CCOCC1)c1ccc(Cl)cc1	0.22	-0.65
Cc1ccc(-c2nnc(SCC(=O)C(C)(C)C)n2N)cc1	nt	-0.55
CCCOc1ccccc1C1C(C#N)=C(N)Oc2n[nH]c(-c3ccc4c(c3)OCO4)c21 (centres undefined)	0.29	nt
Cc1nc2c3ccccc3n3c(CCCC(=O)NCCc4ccc(Cl)cc4)nnc3n2n1	0.67	-0.8
CC1=C(C(N)=O)C(c2ccco2)C(C#N)=C(SCC(=O)N2CCc3ccccc3C2)N1 (centres undefined)	nt	0.45
O=C(CC1SC(=NC2CCCCC2)NC1=O)Nc1ccccc1 (centres undefined)	nt	-0.3
CC(C)Cn1c(-c2ccccc2)c[nH]c1=S	nt	1.4
CC(Sc1ccccc1)C(=O)NCCc1ccccc1 (centres undefined)	0.16	0.8
Cc1ccc(C)n1-c1ccc(C(=O)OCc2nc3ccsc3c(=O)[nH]2)cc1	nt	-0.05
Cc1ccc(-c2cnnn2-c2ccc(-c3csc(C)n3)cc2)cc1	nt	-0.5
COC(=O)OC1C=CS(=O)(=O)C1 (centres undefined)	-0.29	-0.3
O=C1CSC(c2ccc(Br)cc2)N1c1cccc(C(F)(F)F)c1 (centres undefined)	-0.32	nt
CC(=Nc1ccc(Br)cc1)c1sc2ccccc2c1O	-0.27	nt
CCCN(CCC)CCCn1cnc2c([nH]c3ccc(Cl)cc32)c1=O	3.5	0.7
COCCNc1nc(-c2cc(C)n(-c3ccccc3F)c2C)cs1	nt	1.1
Cn1nnc(C(O)CNCc2ccc(Cl)cc2)n1 (centres undefined)	-0.025	-0.1
CN(Cc1ccccc1)c1ccc2nnc(-c3ccccc3)n2n1	2.2	-0.55
FC(F)(F)c1cc(-c2cccs2)n2ncnc2n1	102	-1.2
CNC(=O)c1n[nH]c(=O)c2ccccc12	nt	-0.25
CC(C#N)(NC(=O)CSc1ncccn1)C1CC1 (centres undefined)	nt	0
CCc1ccc(C2(c3ccc(CC)cc3)CC2C(=O)Nc2ccc(F)cc2)cc1 (centres undefined)	-0.15	nt
O=c1/c(=C\c2ccccc2)sc2nncn12	0.43	0.15
CC1(C)CC(=O)C(C=Nc2ccc(S(N)(=O)=O)cc2)=C(O)C1	-0.45	-1.1
CCOc1cccc2c1OC(c1cccc(OC)c1)N1N=C(c3cccc(OC)c3)CC21 (centres undefined)	-0.83	nt
CCOC(=O)c1sc2ncnc(N3CCN(c4ccc([N+](=O)[O-])cc4)CC3)c2c1C	-0.01	nt
O=C(O)CN1C(=O)c2ccccc2C1=O	nt	-0.8

Screening data from PubChem BioAssay.
